Assay outcomes as filed in PubChem BioAssay.
Env fusion inh: blocks HIV Env-driven cell-cell fusion; actives 1.1% (n = 360,000); inhibition, % at 12.3 µM; HeLa-JRFL Env/CEM21 cell fusion, luciferase;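 active = mean replicate inhibition score of at least 50 and every replicate individually at or above 50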;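 also: 0% = plate neutral controls and 100% = maraviroc near 300 nM; one replicate is shown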
Starred values were filed as active, the others as inactive; [ ] = dose if it differs, or a comment. The list is partial; the hit share may differ from the screen's.

SMILES	Env fusion inh
COc1cccc(-c2ccc3c(c2)[C@@H]2[C@@H](CCN2C(=O)NC2CCCCC2)[C@@H](CO)N3C)c1	-3.6[16.7 µM]
COCC(=O)Nc1ccc2c(c1)C(=O)N(C)C[C@H](OC)[C@H](C)CN(C(=O)Cc1cccnc1)[C@H](C)CO2	13.3[16.7 µM]
CCOC(=O)N[C@@H](CC(C)C)C(=O)N1CCC[C@H]1C(=O)NCc1ccccc1	0.4
CCCNC(=O)C[C@@H]1CC[C@H]2[C@@H](COC[C@@H](O)CN2Cc2ccccc2F)O1	32.4[16.7 µM]
C[C@@H]1CN([C@H](C)CO)S(=O)(=O)c2ccc(C#Cc3ccccn3)cc2O[C@H]1CN(C)C	-28.1[16.7 µM]
CCCNC(=O)Cc1ccc(N)cc1	-18.1[16.7 µM]
CCS(=O)(=O)Nc1ccc2c(c1)C(=O)N(C)[C@@H]1CC[C@@H](CC(=O)N[C@H]3CCN(Cc4ccccc4)C3)O[C@@H]1CO2	6.7[16.7 µM]
O=C(NC1CCCC1)N1CC(=O)N2[C@H](CO)[C@@H](c3ccc(-c4ccncc4)cc3)[C@H]2C1	-1.9[16.7 µM]
C[C@@H]1CN([C@@H](C)CO)C(=O)c2cc(-c3ccc(F)cc3)cnc2O[C@@H]1CN(C)C(=O)c1ccncc1	0.5[16.7 µM]
COc1ccc(S(=O)(=O)N(C)C[C@@H]2OCCCC[C@@H](C)Oc3ccc(NS(=O)(=O)c4cn(C)cn4)cc3C(=O)N([C@H](C)CO)C[C@H]2C)cc1	-8.9[16.7 µM]
COc1ccc(-c2ccc3c(n2)CCCN3S(=O)(=O)c2c(C)noc2C)cc1	-7.2
CC(=O)N1[C@@H]2c3ccc(/C=C/c4ccccc4)c(=O)n3C[C@H]1[C@H](CO)[C@H]2C(=O)N(C)C	-6.6[16.7 µM]
O=C(O)C[C@H]1C=C[C@H](NC(=O)c2ccccc2F)[C@H](CO)O1	-2.9[16.7 µM]
COc1ccc(C[C@@H]2CCc3cnnn3COC[C@@H](Cc3ccccc3)NC2=O)cc1	11.9[16.7 µM]
CO[C@H]1CN(C)C(=O)c2cccc(C#N)c2OC[C@H]2O[C@H](CC[C@H]2OC)CCN(C)C(=O)[C@@H]1C	-19.2[16.7 µM]
CO[C@H]1CN(C)C(=O)c2cc(NC(=O)C3CCCC3)ccc2OC[C@H](C)N(C(C)=O)C[C@H]1C	-0.9[16.7 µM]
C[C@H]1CN(c2ccc(N3CCN(C(=O)OC(C)(C)C)C[C@@H]3C)cc2C#N)CCN1Cc1ccccc1	16.8
C[C@@H]1CN([C@@H](C)CO)C(=O)c2cc(-c3cncnc3)cnc2O[C@H]1CN(C)Cc1ccc(Oc2ccccc2)cc1	-11.9[16.7 µM]
CO[C@H]1CN(C)C(=O)c2cc(NC(C)=O)ccc2OC[C@H](C)N(C(=O)c2cnccn2)C[C@H]1C	20.4[16.7 µM]
C[C@@H]1CCCCO[C@H](CN(C)CC2CC2)[C@@H](C)CN([C@@H](C)CO)C(=O)c2cc(NS(=O)(=O)c3ccc(F)cc3)ccc2O1	-18.9[16.7 µM]

Given with each value named: 3 of the compounds above
COc1ccc(C[C@@H]2CCc3cnnn3COC[C@@H](Cc3ccccc3)NC2=O)cc1
  Env fusion inh: 11.9[16.7 µM]
CO[C@H]1CN(C)C(=O)c2cccc(C#N)c2OC[C@H]2O[C@H](CC[C@H]2OC)CCN(C)C(=O)[C@@H]1C
  Env fusion inh: -19.2[16.7 µM]
CO[C@H]1CN(C)C(=O)c2cc(NC(=O)C3CCCC3)ccc2OC[C@H](C)N(C(C)=O)C[C@H]1C
  Env fusion inh: -0.9[16.7 µM]

Remaining list, next part.
SMILES	Env fusion inh
CC(C)C#Cc1ccc2c(c1)O[C@@H](CN(C)C(=O)C1CCC1)[C@H](C)CN([C@@H](C)CO)S2(=O)=O	3.7[16.7 µM]
CN(Cc1ccccc1)C(=O)c1ccc(NC(=O)Cc2ccc(NC(=O)C3CCN(C(=O)C4CC4)CC3)cc2)cc1	-128.6
CCOC(=O)N(C)C[C@@H]1OCc2cn(nn2)CCCC(=O)N([C@H](C)CO)C[C@@H]1C	18.1[16.7 µM]
CO[C@@H]1CC[C@H]2CCN(C)C(=O)[C@H](C)[C@H](OC)CN(C)C(=O)c3cccc(C#N)c3OC[C@H]1O2	-7.8[16.7 µM]
C[C@@H]1CN([C@@H](C)CO)C(=O)c2cccc(NS(=O)(=O)c3cccs3)c2O[C@H]1CN(C)C(=O)Nc1ccccc1	-15.7[16.7 µM]
C[C@@H]1CN([C@H](C)CO)C(=O)c2cc(C#CCc3ccccc3)cnc2O[C@@H]1CN(C)CC1CC1	5.6[16.7 µM]
COc1ccc(-c2ccc3n(c2=O)C[C@H]2[C@H](CO)[C@@H](C(=O)N(C)C)[C@@H]3N2C(=O)c2cnccn2)cc1	-13.6[16.7 µM]
Cc1ccc(SC2=C(N(C)C)C(=O)c3ccccc3C2=O)cc1	4.9
C[C@@H]1CN([C@@H](C)CO)C(=O)c2cccc(NS(C)(=O)=O)c2O[C@H]1CN(C)Cc1ccc2c(c1)OCO2	-2.6[16.7 µM]
CC(C)(C)c1ccc(C#C[C@@H]2C=C[C@H]3OC(=O)CC/C=C/CCC(=O)OC[C@H]3O2)cc1	-3.8
C[C@H](CO)N1C[C@H](C)[C@H](CN(C)S(=O)(=O)c2ccccc2F)OCc2ccccc2-c2ccccc2C1=O	31.2[16.7 µM]
CO[C@@H]1CN(C)C(=O)c2ccc(NC(=O)C3CCOCC3)cc2OC[C@H](C)N(C)C[C@H]1C	16.3[16.7 µM]
CNC[C@@H]1OCCCC[C@@H](C)Oc2ccc(NC(=O)Nc3ccc(OC)cc3)cc2C(=O)N([C@H](C)CO)C[C@H]1C	5.5[16.7 µM]
CC=Cc1ccc2n(c1=O)C[C@H]1[C@H](CO)[C@@H](C(=O)N3CCC(Cc4ccccc4)CC3)N(C)[C@@H]21 (mixture of isomers)	1.5[16.7 µM]
CCCN(C)C[C@H]1OCCCC[C@@H](C)Oc2ccc(NC(=O)c3ccncc3)cc2C(=O)N([C@@H](C)CO)C[C@H]1C	0.2[16.7 µM]
CN[C@H]1C[C@@H](c2ccccc2Br)N(C(C)=O)C[C@H]1CO	-1.3
CCS(=O)(=O)Nc1ccc2c(c1)C(=O)N(C)C[C@H](OC)[C@@H](C)CN(CC1CCCC1)[C@@H](C)CO2	10.0[16.7 µM]
CN1C(=O)c2cc(NS(=O)(=O)c3cccc(F)c3)ccc2OC[C@H]2O[C@@H](CC(=O)NCCN3CCCCC3)CC[C@@H]21	-7.3[16.7 µM]
COc1cc(NC(=O)[C@@H](Cc2ccccc2)NC(=O)[C@H]2O[C@@H](n3ccc(N)nc3=O)[C@H](O)[C@@H]2O)cc(OC)c1OC	2.4
CO[C@H]1CN(C)C(=O)c2ccc(NC(=O)C3CC3)cc2OC[C@@H](C)N(C(=O)c2ccccn2)C[C@@H]1C	3.5[16.7 µM]

Next section (2 carried over from the part before).
SMILES	Env fusion inh
COc1cc(NC(=O)[C@@H](Cc2ccccc2)NC(=O)[C@H]2O[C@@H](n3ccc(N)nc3=O)[C@H](O)[C@@H]2O)cc(OC)c1OC	2.4
CO[C@H]1CN(C)C(=O)c2ccc(NC(=O)C3CC3)cc2OC[C@@H](C)N(C(=O)c2ccccn2)C[C@@H]1C	3.5[16.7 µM]
O=C(NCC1CC1)[C@H]1[C@H](CO)[C@H]2Cn3c(ccc(-c4cccc(F)c4)c3=O)[C@H]2N1CC1CCOCC1	9.7[16.7 µM]
CO[C@@H]1CN(C)C(=O)c2ccc(NC(=O)C3CCCC3)cc2OC[C@H](C)N(S(C)(=O)=O)C[C@H]1C	10.7[16.7 µM]
COCC#Cc1cnc2c(c1)C(=O)N([C@@H](C)CO)C[C@@H](C)[C@H](CN(C)Cc1ccccc1F)O2	18.3[16.7 µM]
C[C@H]1CN([C@@H](C)CO)C(=O)c2ccccc2-c2ccccc2CO[C@@H]1CN(C)C(=O)c1ccc(F)cc1	-8.8[16.7 µM]
C[C@@H]1CN([C@H](C)CO)S(=O)(=O)c2ccc(-c3ccc(C(=O)N(C)C)cc3)cc2O[C@H]1CN(C)C(=O)C1CC1	-6.5[16.7 µM]
COC(=O)c1cc2c(c3c4ccccc4n(S(C)(=O)=O)c13)C(=O)N(Cc1ccccc1)C2	-15.1
C[C@@H]1CN([C@@H](C)CO)C(=O)c2cccc(NC(=O)Nc3ccc(F)cc3)c2O[C@@H]1CN(C)CC1CCCCC1	12.5[16.7 µM]
O=C(N[C@@H](Cc1cccnc1)C(=O)N1CCC[C@H]1C(=O)NCc1ccccc1)c1ccccc1	-0.7
CC(C)NC(=O)Nc1ccc2c(c1)C(=O)N([C@@H](C)CO)C[C@H](C)[C@H](CN(C)C(=O)Cc1ccccc1)OCCCC[C@@H](C)O2	-13.5[16.7 µM]
CO[C@@H]1CN(C)C(=O)c2cc(NC(=O)Nc3c(C)noc3C)ccc2OC[C@@H](C)N(C)C[C@@H]1C	-10.1[16.7 µM]
CNC[C@@H]1OCCCC[C@H](C)Oc2ccc(NC(=O)Nc3cccc4ccccc34)cc2C(=O)N([C@H](C)CO)C[C@@H]1C	15.3[16.7 µM]
N#C[C@H]1[C@@H](c2ccccc2/C=C/c2ccccc2)[C@@H](CO)N1S(=O)(=O)c1cccc(F)c1	58.3*[16.7 µM]
O=C(C[C@H]1C[C@@H]2c3cc(NC(=O)Nc4ccc(C(F)(F)F)cc4)ccc3O[C@@H]2[C@H](CO)O1)NCc1ccc(Cl)cc1	-10.2[16.7 µM]
O=C(NCC1CC1)[C@@H]1[C@@H](CO)[C@@H]2Cn3c(ccc(-c4ccncc4)c3=O)[C@H]1N2Cc1nccs1	17.4[16.7 µM]
CCOC(=O)C1=C(C(=O)OCC)C2N(Cc3ccc(C#N)cc3)c3ccccc3[C@@]23C[C@@H](C(=O)OC)N(S(=O)(=O)c2ccc(F)cc2)C3=N1 (stereo partly drawn)	-2.5
O=C(NC1CCCCC1)N1CC2(C1)[C@@H](c1ccccc1)[C@@H](CO)N2CC1CC1	3.8[16.7 µM]
Cc1cc2c(c(=O)o1)[C@@]1(C(=O)Nc3ccccc31)C1=C(CCCC1=O)O2	-4.6
COCC(=O)N1C[C@H](C)[C@H](OC)CN(C)C(=O)c2cc(NC(=O)C3CCC3)ccc2OC[C@H]1C	-5.2[16.7 µM]
C[C@@H]1CCCCO[C@H](CN(C)Cc2ccncc2)[C@@H](C)CN([C@H](C)CO)C(=O)c2cc(N(C)C)ccc2O1	-19.8
COC(=O)N1C[C@H](O)[C@H](O)C[C@@H]1c1ccccc1Br	7.9
C[C@@H]1CCCCO[C@@H](CN(C)S(=O)(=O)c2cccs2)[C@@H](C)CN([C@@H](C)CO)C(=O)c2cc(NS(=O)(=O)c3ccc(Cl)cc3)ccc2O1	10.5[16.7 µM]
O=C(N[C@H](C(=O)N1CCC[C@H]1C(=O)NCCc1ccccc1Cl)C1CCCCC1)c1ccccc1	-20.8
COc1cccc(C(CC2=CCCCC2)NC(=O)C(F)(F)F)c1 (stereo not drawn)	-9.0
NCCCCCNC(=O)[C@@H]1C[C@@H]2C(=O)N[C@@H](Cc3ccccc3)C(=O)N2[C@@H]1c1cccc(OCCO)c1	-4.2[16.7 µM]
CCN(CC)C(=O)c1ncn2c1C(=O)N[C@H](C)C2	61.5*
CO[C@H]1CN(C)C(=O)c2ccc(NC(=O)c3nc4ccccc4s3)cc2OC[C@H](C)N(Cc2cccnc2)C[C@H]1C	16.8[16.7 µM]
C[C@H](CO)N1C[C@H](C)[C@@H](CN(C)C(=O)c2ccc3c(c2)OCO3)Oc2cc(-c3ccccc3)ccc2S1(=O)=O	15.4[16.7 µM]
CO[C@H]1CN(C)C(=O)c2cc(NC(=O)C3CC3)ccc2OC[C@@H](C)N(C(=O)CN2CCOCC2)C[C@H]1C	27.1[16.7 µM]
C[C@@H](NC(=O)C[C@H]1CC[C@@H]2[C@H](COc3ccc(NS(=O)(=O)c4ccc(Cl)cc4)cc3C(=O)N2C)O1)c1ccccc1	-23.9[16.7 µM]
C[C@@H]1CN([C@@H](C)CO)C(=O)c2c(c3ccccc3n2C)-c2ccccc2CO[C@@H]1CN(C)C(=O)[C@H](Cc1ccccc1)N(C)C	-70.0[16.7 µM]
COc1ccc(CN(C)C[C@@H]2Oc3ccc(NC(=O)Cc4ccccc4)cc3CC(=O)N([C@H](C)CO)C[C@@H]2C)cc1	23.0[16.7 µM]
CC(C)CNc1cccc2c1S(=O)(=O)N[C@@H](C)CO2	-12.2
C[C@H]1CN([C@@H](C)CO)C(=O)Cc2cc(NS(=O)(=O)c3cn(C)cn3)ccc2O[C@@H]1CN(C)S(=O)(=O)c1ccc(F)cc1	-11.7[16.7 µM]
COC(=O)C1=C(C)N(C)C(=NCc2ccc(OC)cc2)NC1c1ccccc1 (stereo not drawn)	17.8
COCC(=O)N1[C@H](C(=O)Nc2ccccc2)[C@@H](CO)[C@@H]2Cn3c(ccc(-c4cccnc4)c3=O)[C@@H]21	-2.9[16.7 µM]
CC(=O)CCN1CCSCCS1(=O)=O	7.6
CCOC(=O)C(C)(C)CC#CCN(CC#Cc1ccccc1)S(=O)(=O)c1ccc(C)cc1	4.5
C[C@@H]1CN([C@@H](C)CO)C(=O)Cc2cc(N(C)C)ccc2O[C@H]1CN(C)Cc1ccc(Oc2ccccc2)cc1	34.0[16.7 µM]
COc1ccc2c3c(n(C)c2c1)[C@H](CO)N(Cc1ccccn1)CC31CCN(Cc2ccccn2)CC1	-24.9[16.7 µM]
Cc1ccc2nc3n(c(=O)c2c1)-c1cc(Cl)ccc1C(=O)NC3Cc1ccc(O)cc1 (stereo not drawn)	34.6
CC(C)(C)[S@@](=O)N1Cc2cc(C(=O)NCc3ccccc3F)nc(-c3cccc(-c4cncnc4)c3)c2[C@H]1CCO	3.9[16.7 µM]
C=CS(=O)(=O)N[C@@H](CSSC[C@H](NS(=O)(=O)C=C)C(=O)OC)C(=O)OC	8.1
